# TAR Tat displ: HIV-1 TAR-Tat binding disruption; z-score (no concentration beside the values); HIV-1 TAR RNA, Tat peptide displacement FRET; stronger effect = higher value; AID 1259389; hit rate 0.6% among 100,000;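 further: score is relative to mean and SD of negative controls; some compounds called inactive have numbers as strong as hits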
# CDC25B CDK2 inh: human CDC25B-CDK2/CyclinA binding inhibition; z-score (concentration not given with the values); hit rate 0.72% among 94,000; HTRF CDC25B-CDK2/CyclinA binding, anti-His/anti-Flag; stronger effect = higher value; P30305+P24941;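 further: score is relative to mean and SD of negative controls; strong numbers were not always called active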
# The depositor's hits bear a star; . = no result given.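 How the source made its calls: active means z-score from 3 up in half or more of its runs; inactive means the rest.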
SMILES,TAR Tat displ,CDC25B CDK2 inh
CN(c1nnc(NC(=O)Nc2ccc3c(c2)OCCO3)s1)C1CCCCC1,-0.2,0.51
O=C(NCCn1ccc2ccccc21)c1c(F)cccc1F,.,-0.68
Cc1ccc(-c2nc3c(c(SCC(=O)N4CCCCC4)n2)Cc2c(CO)cnc(C)c2O3)cc1,1.1,.
Cc1c(C(=O)N2CCCC2)c(S(=O)(=O)NCc2ccco2)c(C)n1C,0.01,.
Cc1ccc2nc(CSc3nnc(NC(=O)c4ccc(C(C)(C)C)cc4)s3)cc(=O)n2c1,0.54,.
O=S(=O)(NCc1ccc(Cl)cc1)c1cc(-c2noc(C3CC3)n2)cs1,1.1,.
Cc1nc2c(sc3nc4c(cc32)COC(C)(C)C4)c(=O)n1CCC(C)C,-0.89,.
Nc1ncnc(Nc2cc(C(F)(F)F)ccc2Cl)n1,.,-0.92
Cc1cc(S(=O)(=O)[C@H]2CS(=O)(=O)C[C@@H]2NCC2CCCO2)ccc1F (some centres not stated),0.24,-1.7
CN(C)CCNc1cc(N2CCOCC2)c2noc3c2c1C(=O)c1ccccc1-3,-1.4,-2
CC(=O)CS(=O)(=O)c1ccc(Cl)cc1,.,0.53
Nc1noc(Cc2c(Cl)cccc2Cl)n1,.,-0.03
COc1ccc(C(=O)OCc2cc(=O)n3nc(CC(C)C)sc3n2)cc1,0.27,.
O=C1CCCC2=C1C(c1cccs1)N(Cc1ccc(F)cc1)c1ccccc1N2 (configuration not stated),0.02,.
O=C(COc1ccccc1)N(Cc1ccco1)Cc1cccs1,1.6,0.93
COc1ccc(-c2nc3ccc(C)cc3c(=O)o2)cc1OC,1.5,-0.42
O=C(CSc1nccn1Cc1ccc2c(c1)OCO2)NCc1ccc2c(c1)OCO2,0.42,.
O=C(NCCC1=CCCCC1)C1CCN(C(=O)N2CCOc3ccccc32)CC1,0.9,.
Cc1cc(C)nc(-n2ncc3c2CC(c2ccco2)CC3=O)n1 (configuration not stated),-0.75,-1.8
CC1CCN(CCNC(=O)C2CCN(c3ccc(-c4cccs4)nn3)CC2)CC1,0.01,.
Oc1cccc2ccc(CNc3ccc(F)cc3)nc12,1.3,1.8
CCN1CCN(CCCNC(=O)c2cc3n(n2)CC(C)(C(=O)NC2CCCCC2)N(C)C3=O)CC1 (configuration not stated),-0.29,.
CC(C)COc1ccc(S(=O)(=O)n2cc(F)c(=O)[nH]c2=O)cc1,0.35,0.07
Cc1nnc(NC(=O)c2cc(=O)c3cc(C)c(C)cc3o2)s1,-0.05,-0.98
Cn1c(O)c(C2=Nc3ccccc3SC(c3ccc(O)cc3)C2)c(=O)[nH]c1=O (configuration not stated),2.7,-1.5
COc1ccc(-c2nnc3[nH]c(=O)n(C)c(=O)c3n2)cc1OC,8.2*,-2.7
c1ccc2c(c1)NC(c1ccc3c(c1)CCO3)n1cccc1-2 (configuration not stated),.,-1.1
Cc1nc(SCC(=O)Nc2ccccn2)oc1C,2.2,.
Cc1nnc(NC(=O)CSc2nccn2Cc2ccc3c(c2)OCO3)s1,-0.27,.
CCOC(=O)C1CCN(c2c(NC3CCCC(C)C3C)c(=O)c2=O)CC1 (configuration not stated),-0.96,-1.4
Cc1nn(Cc2ccc(F)cc2)c(C)c1NC(=O)CCCn1nc([N+](=O)[O-])cc1C,.,0.34
COc1ccc(-c2n[nH]c3c2C(c2ccc(OC)cc2)NC3=O)cc1 (configuration not stated),0.88,.
Cc1noc(/C=C/c2ccco2)c1S(=O)(=O)N1CCCC(C(=O)NC2CC2)C1 (configuration not stated),-0.22,.
CCOc1ccc(-c2noc(-c3nnn(-c4cc(Cl)ccc4C)c3N)n2)cc1,0.73,.
CCOCCCNC(=O)Cn1nc(CC)n2c(cc3sc(CC)cc32)c1=O,1.2,-1.1
Cc1noc(/C=C/c2cccs2)c1S(=O)(=O)N1CCCC(C(=O)N2CCCC(C)C2)C1 (configuration not stated),-0.44,-1
O=C(Nc1c(C(c2ccccc2)N2CCOCC2)oc2ccccc12)c1ccccc1 (configuration not stated),0.28,-0.71
Cc1ncc(-c2ccc(C)c(S(=O)(=O)Nc3cccc(-c4ccno4)c3)c2)o1,0.43,.
O=c1[nH]n(-c2ccccc2Cl)c(=O)c2ccccc12,.,-0.79
Cc1ccc(-c2noc3ncnc(Nc4ccc(-c5ccno5)cc4)c23)cc1,1.5,.

# 14 neighbouring entries from above:
SMILES,TAR Tat displ,CDC25B CDK2 inh
COc1ccc(-c2nnc3[nH]c(=O)n(C)c(=O)c3n2)cc1OC,8.2*,-2.7
c1ccc2c(c1)NC(c1ccc3c(c1)CCO3)n1cccc1-2 (configuration not stated),.,-1.1
Cc1nc(SCC(=O)Nc2ccccn2)oc1C,2.2,.
Cc1nnc(NC(=O)CSc2nccn2Cc2ccc3c(c2)OCO3)s1,-0.27,.
CCOC(=O)C1CCN(c2c(NC3CCCC(C)C3C)c(=O)c2=O)CC1 (configuration not stated),-0.96,-1.4
Cc1nn(Cc2ccc(F)cc2)c(C)c1NC(=O)CCCn1nc([N+](=O)[O-])cc1C,.,0.34
COc1ccc(-c2n[nH]c3c2C(c2ccc(OC)cc2)NC3=O)cc1 (configuration not stated),0.88,.
Cc1noc(/C=C/c2ccco2)c1S(=O)(=O)N1CCCC(C(=O)NC2CC2)C1 (configuration not stated),-0.22,.
CCOc1ccc(-c2noc(-c3nnn(-c4cc(Cl)ccc4C)c3N)n2)cc1,0.73,.
CCOCCCNC(=O)Cn1nc(CC)n2c(cc3sc(CC)cc32)c1=O,1.2,-1.1
Cc1noc(/C=C/c2cccs2)c1S(=O)(=O)N1CCCC(C(=O)N2CCCC(C)C2)C1 (configuration not stated),-0.44,-1
O=C(Nc1c(C(c2ccccc2)N2CCOCC2)oc2ccccc12)c1ccccc1 (configuration not stated),0.28,-0.71
Cc1ncc(-c2ccc(C)c(S(=O)(=O)Nc3cccc(-c4ccno4)c3)c2)o1,0.43,.
O=c1[nH]n(-c2ccccc2Cl)c(=O)c2ccccc12,.,-0.79

# Other structures follow:
SMILES,TAR Tat displ,CDC25B CDK2 inh
O=c1nc(/C=C/c2cccc(Oc3ccccc3)c2)cc(C(F)(F)F)[nH]1,0.18,-0.33
Cc1nnsc1C(=O)Nc1sc2c(c1C(=O)NCc1ccco1)CCCC2,-0.97,-2
CC(=O)CCc1oc2c(Br)cc(C)cc2c1-c1ccc(C)o1,.,0.71
COc1ccc(Nc2nc(N)c([N+](=O)[O-])c(Nc3ccc(OC)cc3)n2)cc1,0.86,.
Cc1ccc(N2NC(C)(c3cccs3)NC2=S)cc1 (configuration not stated),.,-1.3
COc1ccc2c(c1)CC(NS(=O)(=O)c1cc(Br)cc3c1N(C(C)=O)CC3)CO2 (configuration not stated),0.5,.
CCN1C(=O)C2(c3ccccc31)C(C(=O)Nc1cccc(SC)c1)CC1CSCN12 (configuration not stated),20*,.
Cc1ccc(C2=NCN(c3ccc(C(=O)O)cc3)C(=S)N2)cc1,.,-0.16
CN(C)CC[C@@H](c1ccc(Br)cc1)c1ccccn1,0.58,-0.69
CCOc1ccc(CNS(=O)(=O)c2ccc(-c3cc(C)[nH]n3)s2)cc1,0.52,.
O=C(NCCc1ccccc1)c1cccc(NC2=NC3CS(=O)(=O)CC3S2)c1 (configuration not stated),0.94,0.28
Cc1cc(=O)oc2cc(NS(=O)(=O)c3cccs3)ccc12,.,-1.1
CCC(Sc1nnc(C)n2c1cc1occc12)C(=O)Nc1c(C)cccc1C (configuration not stated),-0.07,.
Cn1ncc2c(Nc3ccccc3)nc(NCCN3CCOCC3)nc21,0.62,.
CC12CCC(c3c(C(F)(F)F)n[nH]c31)C2(C)C (configuration not stated),.,-0.16
O=[N+]([O-])c1cccc(C2Oc3ccccc3C3CC(c4ccccc4)=NN32)c1 (configuration not stated),.,-1.8
Cn1cnc(S(=O)(=O)N(Cc2ccco2)CC2CCCO2)c1 (configuration not stated),2,.
CCOc1ccc(C2C3(C#N)C(N)=NC4(OCCO4)C23C#N)cc1 (configuration not stated),.,-1.9
O=C(CN1CCCc2ccccc21)N1CCCc2ccccc21,.,-0.78
CCOC(=O)C1CCN([C@H]2CS(=O)(=O)C[C@@H]2S(=O)(=O)c2ccc(F)c(C)c2)CC1,1.8,-2.7
Cc1ccc(-n2nc(-c3noc(C)n3)c(=O)n(CC(=O)O)c2=O)cc1,-0.94,1.1
Cc1cc(N)n(-c2ccc(C)c(C)c2)n1,0.75,0.76
Cc1nn(-c2ccc(N3CCOCC3)nn2)c(C)c1CCC(=O)N1CCCC1,-0.5,.
CCCOC(=O)C1=C(C)NC2=C(C(=O)CC(C)(C)C2)C1c1ccc(SC)cc1 (configuration not stated),1.3,-0.82
COC(=O)c1ccc(CSc2nc(C)nc3c2CCC3)cc1,0.6,0.09
CC(C)(C)P(=O)(c1ccc(C(=O)O)cc1)C(C)(C)C,.,0.65
CN(CC(=O)N1CCc2ccccc21)S(=O)(=O)c1ccc2c(c1)CCCC(=O)N2,0.46,.
O=c1c2ccccc2sc2ccc(C(F)(F)F)cc12,.,-1.3
Cc1cc(C)cc(N2C(=O)N(Cc3ccccc3)c3ccccc3S2(=O)=O)c1,0.22,.
O=C(c1cn(CC(=O)N2CCCC2)c2ccccc12)C1CCCCC1,0.18,-0.62
Clc1ccc(OCc2nnc(-c3ccccc3)o2)cc1,1.8,-0.35
CCCOC(=O)C1=C(C)NC2=C(C(=O)C(C(=O)OC)C(C)C2)C1c1coc2ccc(Cl)cc2c1=O (configuration not stated),1,-0.59
Cc1ccc(-c2nc3ccccc3[nH]c2=O)cc1,0.97,-2.4
O=C(O)c1ccc2c(=O)n3c4ccc(Cl)cc4nc3c3ccc(C(=O)O)c1c23,0.68,-1
CC(C)OCCCNc1nc2c([nH]1)c(=O)n(C)c(=O)n2C,0.69,-2.2
CCOC(=O)C1CCCN1c1ncc(Cl)cc1[N+](=O)[O-] (configuration not stated),-9.8,14*
Cc1ccc2nc3sc(C(=O)NC4CCCC4)cc3cc2c1,0.64,.
Cc1ccc(S(=O)(=O)[C@H]2CS(=O)(=O)C[C@@H]2NCc2ccccc2F)cc1,-0.84,-0.92
O=C(CN1C(=O)C2(OCCCO2)c2ccccc21)NC1CCCCC1,.,-0.77
Cc1cc2c3c([nH]c2cc1S(=O)(=O)NCc1cccs1)CCCC3=O,-0.02,.

# Retrieved by structure from the entries so far, two records:
SMILES,TAR Tat displ,CDC25B CDK2 inh
CCOC(=O)C1CCCN1c1ncc(Cl)cc1[N+](=O)[O-] (configuration not stated),-9.8,14*
Cc1cc2c3c([nH]c2cc1S(=O)(=O)NCc1cccs1)CCCC3=O,-0.02,.

# (continued)
SMILES,TAR Tat displ,CDC25B CDK2 inh
Cn1ccc2cc(S(=O)(=O)N3CCCC(C(=O)NC4CCCC4)C3)ccc21 (configuration not stated),0.71,.
CC1Sc2ccc(S(=O)(=O)NCc3cccnc3)cc2NC1=O (configuration not stated),1.1,.
Cc1cc(C)nc(N2CCC(C(N)=O)CC2)n1,1.3,-0.65
COc1ccc(-c2noc(-c3nnn(-c4ccc(F)cc4F)c3N)n2)cc1,0.19,.
CSC(=NCc1ccco1)NC#N,.,2.3
O=C(Nc1ccccc1C(=O)NCc1cccs1)c1ccccc1Cl,.,-1.3
O=C(CN1C(=O)CSc2ncccc21)NCC1CCCO1 (configuration not stated),1.5,-0.83
Fc1ccc(CN2CCN(Cc3c[nH]c4ccccc34)CC2)cc1,0.83,-0.77
Cc1nc(-n2cccc2)sc1C(=O)N/N=C/c1ccccc1Cl,.,-0.31
Cc1nn(-c2nncc(-c3ccccc3)n2)c2c1C(c1ccccc1F)CC(=O)N2 (configuration not stated),2.6,-0.02
CC(C)(C)c1ccc(-c2nc(NCc3cccnc3)c3ccccc3n2)cc1,-0.72,-1.8
Cn1c(=O)n(C)c2cc(N3CCOCC3)c(N)cc21,0.62,0.34
O=C(Cc1ccc(F)cc1)Nc1ccc2[nH]c(=O)sc2c1,1.3,.
O=C(S[C@H]1CCC[C@@H]1C(=O)O)c1ccccc1,.,-2.5
Cc1ccc(NC(=O)N2CCNC2=O)c(C)c1,2.4,-2.3
O=C1NC2(c3ccccc3)NC(=O)NC2(c2ccccc2)N1 (configuration not stated),.,-0.59
O=S(=O)(NCc1nnnn1-c1ccccc1)c1ccc(Br)cc1,0.3,.
COc1ccc(-c2nc3n(n2)C(c2ccc(Cl)cc2)C2=C(CC(C)(C)CC2=O)N3)cc1 (configuration not stated),0.87,0.09
COc1ccc(-c2cc(C)no2)cc1S(=O)(=O)Nc1ccc(C)c(N(C)C)c1,0.11,.
CCOc1ccc(-n2c(C)c(C)c3c2ncn2nc(-c4ccccn4)nc32)cc1,1.6,-1.3
COc1cc(NS(=O)(=O)c2c(C)nc3scc(C)n3c2=O)cc(OC)c1,-0.54,-0.63
O=C(c1nc2n(n1)C1(CCCCC1)[C@@H]1CCCC[C@@H]1N2C(=O)c1ccco1)N1CCOCC1,1.8,-0.69
Cc1cc(SCC(=O)Nc2sc3c(c2C(N)=O)CCCC3)ncn1,0.32,0.21
C=CCN(Cc1nc(-c2ccc(OC)c(OC)c2)no1)C(=O)NC1CCCCC1,0.19,0.12
CCCCC(=O)O[C@H]1CCC2C3CCc4cc(O)ccc4C3CC[C@@]21C (some centres not stated),1.4,.
O=C(NCCN1CCOCC1)C1CC(c2ccc(Cl)cc2)=NO1 (configuration not stated),0.63,0.66
C=CCNC(=O)C1=Cc2cc(Cl)cc(OC)c2OC=C1,-0.45,-1.2
OCCCNc1ncnc2c1oc1ccccc12,-0.39,0.17
Oc1ccc2ncccc2c1C(Nc1ccccn1)c1ccccc1F (configuration not stated),-1.1,-0.36
COc1ccc(-c2noc(-c3nnn(-c4ccc(C)c(F)c4)c3C)n2)cc1OC,0.06,.
CCCNC(=O)C1CCN(S(=O)(=O)c2ccc3c(c2)CC(C)N3C(=O)C2CC2)CC1 (configuration not stated),-0.84,.
Nc1nc(NCCc2ccccc2)nc(Nc2ccccc2)c1[N+](=O)[O-],2.2,.
COc1ccc(-c2c(C)oc3cc(OC)ccc23)cc1,0.89,-0.27
O=C(NCCN1CCCc2ccccc21)Nc1ccccc1Cl,0.09,-0.83
CCCCCCCNC(=O)c1c(O)c2c([nH]c1=O)CCCC2,-0.44,.

# Screening results: PubChem, Center for Chemical Genomics, University of Michigan
